VDR inhibitor: vitamin D3 receptor (human) inhibition; 400,000 compounds, 0.93% hits; VDR-SRC2-3 peptide fluorescence polarization, 2 h; P11473; Potency, µM, inactives show max response, negative = inhibition, most hits filed as inhibitors; active = well fitted inhibition curve with a large enough effect; inconclusive = small, poorly fitted or top-dose-only effect, or another doubt; inactive = no such curve, though single readings can be large or run the other way; note: series mostly up to about 120 µM
Target sequence (P11473 whole entry, looked up): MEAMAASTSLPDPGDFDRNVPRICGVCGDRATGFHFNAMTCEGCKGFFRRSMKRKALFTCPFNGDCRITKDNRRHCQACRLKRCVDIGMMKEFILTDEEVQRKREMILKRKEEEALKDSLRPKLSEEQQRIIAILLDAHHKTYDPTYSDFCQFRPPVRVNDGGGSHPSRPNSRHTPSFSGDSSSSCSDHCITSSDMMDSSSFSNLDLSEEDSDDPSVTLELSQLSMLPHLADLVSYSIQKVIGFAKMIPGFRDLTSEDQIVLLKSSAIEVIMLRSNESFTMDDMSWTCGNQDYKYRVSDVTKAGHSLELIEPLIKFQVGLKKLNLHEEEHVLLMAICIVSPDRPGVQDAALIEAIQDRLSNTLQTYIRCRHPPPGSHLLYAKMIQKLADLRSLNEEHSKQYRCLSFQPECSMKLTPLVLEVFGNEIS
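Two reagent solutions held at 4 deg C in the dark were dispensed, compounds pinned at 23 nl, and the mixture incubated 2 h at room temperature. Read-out: fluorescence polarization of VDR–SRC2-3 peptide binding.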
* = called active by the depositor; ? = inconclusive; & = joins results of further samples; [ ] = another dose, or the depositor's remark. % is set by controls: 0 for no effect and ±100 for the full control effect; potency is the fitted concentration of half-maximal effect. These rows are one share of the data; rates above refer to the full screens.

SMILES	VDR inhibitor
CC1CN(S(=O)(=O)c2ccc(NC(=O)CCN3C(=O)c4ccccc4C3=O)cc2)CC(C)O1 (stereo not drawn)	0%
CCC(=O)Nc1nnc(-c2ccco2)o1	-4%
CC(=O)Nc1cc(C(=O)O)ccc1S(=O)(=O)c1ccc(C)cc1	7%
CC(C)(C)[C@@H]1CCC(=O)N(CC[C@H](N=[N+]=[N-])c2ccccc2)CC1	-19%
CCOc1ccc(S(=O)(=O)NCc2ccccc2Cl)cc1C(N)=O	-8%&-8%
CC[n+]1c(C)n(-c2ccccc2)c2ccc(NC(C)=O)cc21	-10%
Cc1nnc(C)c2c(C)n(-c3ccccc3)c(C)c12	9%
Cc1c2c(nc3c(C(=O)NC4CCCC4)cnn13)CCCC2	3%
CN1CCC(N(C)CC(=O)Nc2ccccc2N2CCOCC2)CC1	13%
CC(C)NC(=O)CC(=O)N/N=C/c1ccc(Br)cc1	0%
COc1cc2cc(CCOC(=O)c3ccc(F)cc3)oc(=O)c2cc1OC	-17%
CC(=C1C(=O)c2ccccc2C1=O)N1CCC(C(N)=O)(N2CCCCC2)CC1	-12%
COc1ccc(-c2nc(-c3cccc([N+](=O)[O-])c3O)cc(=O)o2)cc1OC	-24%
CCOC(=O)C(/C=C(\C#N)C(=O)OCC)=C(/N)N1CCN(c2ccc(OC)cc2)CC1	5%
CN(C)S(=O)(=O)c1ccc(C(=O)Nc2ccc(CN3CCCC3)cc2)cc1	-11%
CN(C)S(=O)(=O)n1cc(/C=C(\NC(=O)c2ccccc2F)C(=O)N2CCCC2)c2ccccc21	1%
Oc1cccc(/C=N/N2CCN(c3ccccn3)CC2)c1	11%
O=C(COC(=O)CCCN1C(=O)c2cccc3cccc(c23)C1=O)Nc1cccc(C(F)(F)F)c1	9%
O=C(c1ccc2c(c1)N(Cc1cccc(Cl)c1)C(=O)c1ccccc1S2(=O)=O)N1CCCCCC1	-2%
COC(=O)c1sc(NC(=O)c2ccc(Cn3cc(Cl)cn3)o2)c(C#N)c1C	?
CC(C)Nc1ccccc1	-9%
CCc1cccc2c(C(=O)CSc3nnc(-c4ccncc4)n3C)c[nH]c12	-4%
COc1ccccc1OCC(=O)O/N=C(\N)c1ccccn1	-14%
CCOC(=O)C1=C(c2ccccc2)N=c2s/c(=C\c3cc(OC)c(OC)c(OC)c3)c(=O)n2C1c1cccs1 (stereo not drawn)	16%
COC(=O)CNC(=O)CN1C(=O)N(c2ccccc2)C(N(O)C(=O)Nc2ccccc2)C1(C)C (stereo not drawn)	20%
Continuation.
SMILES	VDR inhibitor
CC(=O)OC1CCC2(C)C(=CC=C3C2CCC2(C)C3CCC2C(C)/C=C/C(C)C(C)C)C1(C)C (stereo not drawn)	1%
CCN(CC(=O)Nc1c(F)cccc1F)C(=O)CCNC(=O)c1ccco1	6%
NNC(=O)c1cccc(COc2ccc(Br)cc2)c1	-27%
COc1ccc(C(=O)N2CCC(=O)N(C(CO)Cc3ccccc3)CC2)cc1 (stereo not drawn)	-20%
CCCCN(C)C(=O)C1CCN(Cc2cccc(OCc3ccccc3)c2)CC1	-5%
COC(=O)c1sccc1NC(=O)/C=C/C(=O)O	3%
O=c1[nH]n(-c2ccc(Cl)cc2)c(=O)c(Cl)c1Cl	0%
CSc1ccc(S(=O)(=O)N2CCC(C(=O)Nc3ccccc3C(F)(F)F)CC2)cc1	6%
O=C(Cc1ccc(Br)cc1)N1CCOCC1	-6%
O=C(CN1CCOCC1)Nc1scc2c1c(=O)oc1ccccc12	1%
Cc1cc(=O)n(Cc2c(F)cccc2Cl)c2c1c(C)nn2-c1cccc(F)c1	8%
CN(C)c1ccc(/C=N/Nc2cc(N3CCOCC3)nc(N3CCOCC3)n2)cc1	1%
CC1(C)CCN(Cc2ccccc2)C1CC#N (stereo not drawn)	-2%
Cc1ccc(NC(=O)N2CCN(c3nnc(C)c4c(C)n(-c5ccccc5)nc34)CC2)cc1Cl	15%
CC(NC(=O)c1cc2ccccc2oc1=O)c1ccc(O)cc1 (stereo not drawn)	11%
COC(=O)c1[nH]c2ccc(F)cc2c1NC(=O)CCN1CCN(Cc2ccc3c(c2)OCO3)CC1	4%
Cc1ccnc(NC(=O)CCC(=O)N(CC(=O)NC2CCCCC2)Cc2cccs2)c1	2%
COc1ccc(-c2noc(N3CCC(C(=O)NCc4ccccc4Cl)CC3)n2)cc1	-11%
Cc1cccc(NC(=O)NCc2ccc3[nH]c(C)cc3c2)c1	14%
O=C(c1cccc(S(=O)(=O)Nc2ccccc2Cl)c1)N1CCCCCC1	-23%
Cc1cc(C)n(C2CCCCC2OC(=O)c2ccccc2)n1 (stereo not drawn)	14%
Cc1ccc(C)c(N2CCN(C(=O)CCc3nc(-c4cccc(F)c4)no3)CC2)c1	-7%
COc1ccc(-c2nn(-c3ccccc3)cc2/C=N/NC(=O)c2ccc(Br)o2)cc1	-7%
CCCNC(=O)NCCc1c(C)[nH]c2ccccc12	4%
Cc1c(NC(=O)Nc2cccc(F)c2)c(=O)n(-c2ccccc2)n1C	9%
Next section.
SMILES	VDR inhibitor
CC(C)C(=O)N[C@@H]1c2ccccc2CC[C@@H]1O	3%
CNC(=O)c1ccc2nc(Cc3ccccc3)oc2c1	9%
O=C1c2ccccc2C(=O)N1CCCCSc1nc2ccccc2o1	3%
Cc1cccc(N=Nc2c(O)[nH]c3ccc(Br)cc23)c1	-8%
Cc1cc2c(cc3c(SCc4cccc(Cl)c4)nnc(C)n32)o1	16%
CCc1ccc2[nH]cc(S(=O)(=O)c3ccc(C(C)C)cc3)c(=O)c2c1	-11%
CC(C)c1ccc(O)c(NC(=S)NC(=O)c2cccnc2)c1	2%
CCCCNS(=O)(=O)c1ccc(NC(=O)Cc2ccc(OC)cc2)cc1	11%
O=C(Nc1ccc(Oc2ccccc2)cc1)C1CCN(S(=O)(=O)c2ccc(Cl)cc2)CC1	-4%
Cc1nnc(SC(C(=O)c2ccccc2)c2ccccc2)[nH]c1=O (stereo not drawn)	-12%
O=C(C(Cc1ccccc1)n1cccc1)N1CCN(Cc2ccccc2)CC1 (stereo not drawn)	-13%
CC1CCCN(S(=O)(=O)c2ccc3oc(=O)ccc3c2)C1 (stereo not drawn)	13%
Cc1cc(C)cc(-c2nnc(SCC(=O)N3CCN(C(=O)c4ccco4)CC3)o2)c1	5%
Cc1cccc(C(=O)O)c1[N+](=O)[O-]	16%
O=C(Nc1ccc(F)cc1)C1CC(=O)n2ncnc2N1 (stereo not drawn)	-16%
C=CCN(c1ccccc1OC)S(=O)(=O)c1cccc(C(=O)OC2CCOC2=O)c1 (stereo not drawn)	9%
C=CCOc1ccc(C2NC(=O)NC(C)=C2C(=O)OC)cc1 (stereo not drawn)	7%
Cn1cc(S(=O)(=O)CC(=O)N2CCCc3ccccc32)c2ccccc21	-7%
COC(=O)CC1=NN(c2ccc(OC)cc2)C(=O)C1	-11%
Nc1nc(CSc2nc3ccccc3[nH]2)cs1	1%
Cc1c(C(=O)N2CCN(C(=O)c3ccccc3)CC2)oc2ccc(F)cc12	12%
COc1ccc(S(=O)(=O)N2CCOCC2)cc1NC(=O)Cc1coc2cc(C)ccc12	6%
Cc1ccc(NC(=O)c2nnn(CC(=O)Nc3ccccc3)c2N)cc1C	3%
CC(C)OCCCNC(=O)c1ccc(NC(=O)C2=CSCCO2)cc1	-3%
CCOC(=O)c1c(C)nc2ncccn12	-8%

Part of the list above, reformatted.
SMILES | VDR inhibitor
CCCCNS(=O)(=O)c1ccc(NC(=O)Cc2ccc(OC)cc2)cc1 | 11%
O=C(Nc1ccc(Oc2ccccc2)cc1)C1CCN(S(=O)(=O)c2ccc(Cl)cc2)CC1 | -4%
Cc1nnc(SC(C(=O)c2ccccc2)c2ccccc2)[nH]c1=O (stereo not drawn) | -12%
O=C(C(Cc1ccccc1)n1cccc1)N1CCN(Cc2ccccc2)CC1 (stereo not drawn) | -13%
CC1CCCN(S(=O)(=O)c2ccc3oc(=O)ccc3c2)C1 (stereo not drawn) | 13%
Cc1cc(C)cc(-c2nnc(SCC(=O)N3CCN(C(=O)c4ccco4)CC3)o2)c1 | 5%
Cc1cccc(C(=O)O)c1[N+](=O)[O-] | 16%
O=C(Nc1ccc(F)cc1)C1CC(=O)n2ncnc2N1 (stereo not drawn) | -16%
C=CCN(c1ccccc1OC)S(=O)(=O)c1cccc(C(=O)OC2CCOC2=O)c1 (stereo not drawn) | 9%
C=CCOc1ccc(C2NC(=O)NC(C)=C2C(=O)OC)cc1 (stereo not drawn) | 7%
Cn1cc(S(=O)(=O)CC(=O)N2CCCc3ccccc32)c2ccccc21 | -7%
COC(=O)CC1=NN(c2ccc(OC)cc2)C(=O)C1 | -11%
Nc1nc(CSc2nc3ccccc3[nH]2)cs1 | 1%
Cc1c(C(=O)N2CCN(C(=O)c3ccccc3)CC2)oc2ccc(F)cc12 | 12%
COc1ccc(S(=O)(=O)N2CCOCC2)cc1NC(=O)Cc1coc2cc(C)ccc12 | 6%
Cc1ccc(NC(=O)c2nnn(CC(=O)Nc3ccccc3)c2N)cc1C | 3%
CC(C)OCCCNC(=O)c1ccc(NC(=O)C2=CSCCO2)cc1 | -3%
CCOC(=O)c1c(C)nc2ncccn12 | -8%

Next structures
SMILES	VDR inhibitor
Cc1sc(NC(=O)c2ccco2)c(CN2CCN(c3ccccc3)CC2)c1C	-7%
Cc1ccc(NC(=O)N2CCN3CCCCC3C2)cc1C (stereo not drawn)	9%
CCOc1ccc(NC(=O)c2cc(C)nc3ccccc23)cc1	-3%
CCn1cc(Cl)c(C(=O)N2N=C3/C(=C/c4cccs4)CCCC3C2c2cccs2)n1 (stereo not drawn)	5%
O=C1C2C3C=CC(C3=C3CCCCC3)C2C(=O)N1c1ccccc1 (stereo not drawn)	-5%
NC(=O)CN1CCN(CCN2C(=O)c3cccc4cccc(c34)C2=O)CC1	-19%
O=C(NCc1cccs1)Nc1cc(Cl)ccc1Cl	-10%
COc1ccc(-n2cnc3scc(-c4ccccc4)c3c2=O)cc1	-19%
CCOc1ccc(N(CC(=O)Nc2cc(Cl)ccc2C)S(C)(=O)=O)cc1	-17%
CCN(CC)C(=O)c1sc(NC(=O)c2cccc([N+](=O)[O-])c2)c(C#N)c1C	4%
Cc1ccc(N(Cc2cc(=O)[nH]c3ccccc23)C(=O)c2ccco2)cc1	-12%
Cc1cccc(C(=O)Nc2nc3c(s2)CCCC3)c1	16%
O=C(NCCc1ccccn1)c1ccc(OC2CCN(CCc3ccccc3)CC2)cc1	0%
CC(C)c1nnc(NC(=O)CSc2nc3ccccc3s2)s1	5%
O=C(CSc1ncnc2sccc12)Nc1ccccc1F	6%
CSCC(=O)N1CCC(CCC(=O)NC2CC2)CC1	7%
COn1cnnc1-c1ccccc1	0%
O=C(c1ccccc1)c1nn(-c2ccccc2)c(=O)cc1C(F)(F)F	9%
CCOc1ccc(NC(=S)NC(=O)c2cncc(Br)c2)cc1	7%
CCOC(=O)c1ccccc1NC(=O)COc1ccccc1-c1nnc(-c2ccccc2)o1	7%
CSC1=NCCN1C(=O)C(C)(C)Oc1ccc(Cl)cc1	-6%
O=C(NCc1ccccn1)C(=O)NCC1OCCN1S(=O)(=O)c1ccc(Br)cc1 (stereo not drawn)	-12%
CC(=O)C1=NN(c2ccccc2)C(c2ccc3c(c2)OCO3)N1c1ccc(N2CCOCC2)cc1 (stereo not drawn)	-6%
Cc1ccc(CNC(=O)C2CCCC2)cc1	-24%
COc1ccc(-c2cc(N)n(S(=O)(=O)Cc3ccccc3)n2)c(OC)c1	-3%
(continued)
SMILES	VDR inhibitor
O=C(CNC(=O)C1COc2ccccc2O1)N/N=C\c1ccc(Cl)cc1 (stereo not drawn)	-4%
COc1ccc(OC)c(S(=O)(=O)N2CCCCC2C(=O)O)c1 (stereo not drawn)	-11%
O=C(Nc1ccc(Cl)c(S(=O)(=O)N2CCCCC2)c1)c1cccnc1	33%[activator]
Cc1onc(-c2ccccc2)c1C(=O)NC(C)C	-9%
CCOC(=O)COc1ccc(F)cc1C(=O)c1ccn2nc(-c3ccc(C)cc3)cc2n1	1%
COc1ccc(-c2nnc(N3CCCCC3)c3ccccc23)cc1	10%
CC(=O)c1c(N2CCN(c3ccc(F)cc3)CC2)nc(=S)n(Cc2ccccc2)c1C	-29%
Cc1cccc(OCc2nnc(SCC(=O)NCC3CCCO3)n2C)c1 (stereo not drawn)	-2%
COC(=O)c1cc(C(=O)NNC(=O)c2ccc3c(c2)OCO3)cc([N+](=O)[O-])c1	12%
Cc1cc(N2CCC(C)CC2)nc2ccc(NC(=O)CCC(=O)N3CCN(c4cccc(C(F)(F)F)c4)CC3)cc12	2%
Cc1ccccc1COC(=O)c1cc([N+](=O)[O-])ccc1N1CCOCC1	-20%
O=C(NNS(=O)(=O)c1ccc(Br)cc1)c1cccs1	-29%
CCOc1ccc(OCC(=O)Nc2cc3c(cc2C(=O)O)OCCCO3)cc1	-18%
c1ccc(COc2ccc(-c3csnn3)cc2)cc1	-9%
O=C(NCC(c1ccco1)N1CCCC1)c1ccc(Cl)cc1 (stereo not drawn)	10%
COC(=O)c1cccc(NS(=O)(=O)c2ccc(OC)c(C(=O)N3CCOCC3)c2)c1C	-9%
CCC(C)NC(=O)c1ccccc1C(=O)NC(C)CC (stereo not drawn)	-3%
CN(C)/C=C/C(=O)c1ccc(N2CCN(c3ncc(C(F)(F)F)cc3Cl)CC2)cc1	-5%
COc1ccc(CNc2nccs2)cc1	-4%
COc1ccc(CCNC(=O)Cc2ccc(Cl)cc2)cc1OC	0%
CCC(C)NS(=O)(=O)c1ccc(NS(=O)(=O)c2ccccc2[N+](=O)[O-])cc1 (stereo not drawn)	?
CCN(CC)CCCNC(=O)c1nn(-c2ccc(C)cc2)c(=O)c2c1c1ccccc1n2C	3%
CCc1nc2ccc(F)cc2c(C(=O)NC2CCCCC2C)c1C (stereo not drawn)	-3%
Cc1ccc(N2C(=O)CC(NNc3nc4ccccc4s3)C2=O)cc1 (stereo not drawn)	-3%
Fc1ccc(C(Nc2ccccc2Cl)c2nnc(-c3ccccc3Cl)o2)cc1 (stereo not drawn)	-8%
Cc1ccc([N+](=O)[O-])cc1NC(=O)c1c(-c2ccccc2)noc1C	13%
